High-throughput results as filed in PubChem BioAssay.
Beta cell apopt = inhibitors of cytokine-induced beta cell apoptosis, primary screen, luminescence. INS-1E cytokine-induced death, ATP luminescence, 48 h; percent of positive-control rescue, neutral wells zero. protection from apoptosis, % (test concentration not listed). actives 0.8% (n = 300,000). AID 435005, 2010;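 active = all replicates at 75% or more, or half of them and the mean; inconclusive = half reach 75% but not the mean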;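 note: 0% = cytokine-treated negative control wells and 100% = positive control rescue; higher means more ATP so stronger rescue from cytokine killing; wells of about 40 µL received 100 nL stock; the first replicate is given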
T cruzi repl = inhibitors of intracellular T. cruzi growth, primary screen, luminescence, NIH3T3 host cells; T. cruzi beta-gal in NIH3T3, 90 h; inhibition, % (concentration not given with the values); actives 1.4% (n = 300,000);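 active = mean inhibition across valid replicates above about 55%, limit read from the data; inconclusive = mean below that limit but half or more replicates reach it; inactive = mean below it, under half of replicates reach it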;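 note: signal also drops with host cell toxicity which is not excluded here; 0% = plate median of DMSO wells and 100% = zero luminescence signal; higher percent means less beta-gal luminescence so fewer parasites; stock transfer was 50 nL into about 50 µL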
AF4-AF9 inh = inhibitors of AF4 peptide binding to AF9, primary screen, biochemical, AlphaScreen, biotin-AF4 peptide, FLAG-AF9, single point; AID 651704, 2012; inhibition, % at 10 µM; Protein AF-9 (Homo sapiens), P42568; actives 0.47% (n = 350,000);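 active = every replicate reaching a set inhibition limit, whatever the replicate mean, cut at about 25% in these data; inconclusive = mean inhibition reaches that limit but some replicates miss it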;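 note: 0% = plate neutral control median and 100% = total signal loss; the record names both 10 and 1 µM as test concentration; the first replicate is given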
Target sequence (P42568 whole entry, looked up): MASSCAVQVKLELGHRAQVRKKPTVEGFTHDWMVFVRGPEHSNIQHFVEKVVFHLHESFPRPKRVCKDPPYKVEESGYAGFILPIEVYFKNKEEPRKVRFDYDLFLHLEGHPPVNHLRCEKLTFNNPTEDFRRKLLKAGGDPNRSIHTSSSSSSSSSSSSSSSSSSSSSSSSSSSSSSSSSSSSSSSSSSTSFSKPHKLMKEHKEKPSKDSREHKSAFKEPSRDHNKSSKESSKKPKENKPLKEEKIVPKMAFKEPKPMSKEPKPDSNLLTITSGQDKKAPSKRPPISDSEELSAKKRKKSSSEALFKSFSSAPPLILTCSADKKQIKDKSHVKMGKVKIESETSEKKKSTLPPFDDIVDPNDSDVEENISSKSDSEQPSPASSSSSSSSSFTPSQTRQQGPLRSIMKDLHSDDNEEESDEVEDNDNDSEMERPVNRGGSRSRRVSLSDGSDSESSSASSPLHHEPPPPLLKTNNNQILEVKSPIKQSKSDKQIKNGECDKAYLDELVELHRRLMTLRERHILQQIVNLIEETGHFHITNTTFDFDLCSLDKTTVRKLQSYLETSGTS
E coli growth = E. coli growth inhibition, primary screen, OD600 | Escherichia coli growth, 23 h; active compounds read low | OD600 absorbance (no concentration beside the values) | actives 0.21% (n = 330,000);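 active = OD600 absorbance below the run mean of sample wells minus 3.6 SD, in any replicate, cut at about 0.56 in these data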;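 note: stock transfer was 300 nL into about 60 µL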
rRNA inh HTS = reduced GFP signal of wild-type E. coli, primary screen, bacterial rRNA inhibitor project, GFP/RFP fluorescence, OD600, single point; actives 1.6% (n = 350,000); GFP signal change (wild-type ribosome), % (test concentration not listed); E. coli WT GFP vs humanized-ribosome RFP mutants, 24 h; active compounds read low; DMSO median 0, no signal -100;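 active = significant combined selectivity score with lowered wild-type GFP, culture density cut under 30%, mutant RFP and density less affected; inactive = any of these conditions unmet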; note: one replicate is shown; some compounds called inactive have numbers as strong as hits
FGF22 binding = binders of human FGF22 protein, primary screen, FGF22 synaptogenesis inhibitor project, biophysical, thermal shift, single point. calls only at 9.99 µM. recombinant FGF22 thermal shift, SYPRO orange fluorescence; percent of sucrose octasulfate shift, DMSO zero. Fibroblast growth factor 22 (Homo sapiens), Q9HCT0. AID 651658, 2012. actives 1.5% (n = 340,000);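 active = melting point raised past a set limit in the mean and every replicate; inconclusive = no clear call; three in four hits are not shown here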
Target sequence (Q9HCT0 whole entry, looked up): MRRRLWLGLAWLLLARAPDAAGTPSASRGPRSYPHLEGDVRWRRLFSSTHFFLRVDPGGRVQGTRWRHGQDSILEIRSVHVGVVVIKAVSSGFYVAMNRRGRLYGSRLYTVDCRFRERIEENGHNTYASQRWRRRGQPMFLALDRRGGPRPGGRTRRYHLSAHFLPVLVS
UCH37 DUB inh = inhibitors of human UCH37 deubiquitinase, primary screen, biochemical, Ub-AMC cleavage, fluorescence. actives 0.33% (n = 330,000). purified proteasome/UCH37. AID 588478, 2011. inhibition, % (test concentration not listed);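 active = mean of two replicates above 20%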;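 note: 0% = compound-free wells with enzyme and 100% = wells lacking proteasome; stock transfer was 100 nL into about 20 µL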
Target sequence (Q9Y5K5 whole entry, looked up): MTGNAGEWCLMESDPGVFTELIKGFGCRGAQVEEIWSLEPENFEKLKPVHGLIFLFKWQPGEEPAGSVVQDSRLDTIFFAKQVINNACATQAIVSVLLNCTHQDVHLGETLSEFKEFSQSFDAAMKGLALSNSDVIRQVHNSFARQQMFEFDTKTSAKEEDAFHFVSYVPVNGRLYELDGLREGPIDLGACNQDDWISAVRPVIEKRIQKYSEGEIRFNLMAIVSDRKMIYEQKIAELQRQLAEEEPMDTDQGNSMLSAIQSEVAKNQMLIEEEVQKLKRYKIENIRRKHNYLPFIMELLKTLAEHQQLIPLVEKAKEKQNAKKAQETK
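assay system = human UCH37 enzyme supplied as purified proteasome complex | amount = proteasome at 0.15 nM in the dispensed enzyme solution | schedule = 30 min compound-proteasome preincubation then 25 min substrate reaction, room temperature | measured by = fluorescence, ex 355 nm, em 460 nm | benchmarks = no-proteasome wells (full inhibition) and compound-free wells (no inhibition)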
Bfl-1 A1 inh = caspase 3/7 activation in MEF A1-2A-BIM cells, primary screen, A1 inhibitor project, cell-based, luminescence, HTS | Caspase-Glo 3/7 luminescence, 3 h; percent of clofoctol response, vehicle zero | caspase activation, % (test concentration not listed) | actives 0.066% (n = 330,000) | AID 2462, 2010;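 active = over half of replicate activation scores above 10%, or exactly half above 10 with the replicate mean above 10; inconclusive = replicate mean below 10 yet half the replicates above 10; inactive = over half of replicates below 10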;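 note: wells of about 30 µL received 50 nL stock; many hits fall short of the cut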
rRNA inh HTS OD600 = further read-out of rRNA inh HTS, marked with its call; OD600 change, %; measured here: OD600 growth;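 optical density of the mix in the first replicate; 0 = DMSO median and -100 = no signal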
rRNA inh HTS RFP = recorded beside rRNA inh HTS, whose call it bears; RFP signal change, %; measured here: RFP humanized mutant strains;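 first replicate; 0 = DMSO median and -100 = no signal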
* hit, by the source's call. An excerpt. The share of hits here may be higher or lower than overall.

What do the screens show for `Cc1nn(Cc2ccc(Cl)c(Cl)c2)c(C)c1NC(=O)c1cc(CC(C)C)on1`?
Beta cell apopt: 48; T cruzi repl: 25; AF4-AF9 inh: -3.2; E coli growth: 0.76; rRNA inh HTS: -15; FGF22 binding: inactive; UCH37 DUB inh: 4.7; Bfl-1 A1 inh: -0.9; rRNA inh HTS OD600: -15; rRNA inh HTS RFP: 10

How did O=C(N/N=C/C(Br)=C/c1ccccc1)c1ccccc1F do in these assays?
T cruzi repl: -34; AF4-AF9 inh: 6.5; rRNA inh HTS: -3; FGF22 binding: inactive; Bfl-1 A1 inh: -6.3; rRNA inh HTS OD600: -15; rRNA inh HTS RFP: 1.8

What do the screens show for `O=C(N[C@H](C(=O)O)c1ccccc1)C1CCC(Cn2cnc3ccccc3c2=O)CC1` (some centres undefined)?
Beta cell apopt: -6; T cruzi repl: 4; AF4-AF9 inh: -4.3; E coli growth: 0.67; rRNA inh HTS: 2; FGF22 binding: inactive; UCH37 DUB inh: -3.6; Bfl-1 A1 inh: -0.3; rRNA inh HTS OD600: 14; rRNA inh HTS RFP: -4.8

How did COc1ccc2c(c1OC)C(=O)OC2Nc1ncccc1C (centres undefined) do in these assays?
Beta cell apopt: -16; T cruzi repl: -19; E coli growth: 0.78; UCH37 DUB inh: -0.8; Bfl-1 A1 inh: 0.4

Results for O=C(Nc1nnc(CCc2ccccc2)s1)C1CCCO1 (centres undefined) ?
Beta cell apopt: -5; T cruzi repl: 8; E coli growth: 0.69; UCH37 DUB inh: 2.8; Bfl-1 A1 inh: 0.4

Results for CC1CCCN(S(=O)(=O)c2ccc(C(=O)Nc3nnc(-c4ccncc4)o3)cc2)C1 (centres undefined) ?
Beta cell apopt: 9; T cruzi repl: -39; AF4-AF9 inh: 1.3; E coli growth: 0.67; rRNA inh HTS: -54; FGF22 binding: inactive; UCH37 DUB inh: -1.4; Bfl-1 A1 inh: -0.7; rRNA inh HTS OD600: -74; rRNA inh HTS RFP: -16

What do the screens show for `CCOC(=O)Cn1c(=O)c(C#N)cn(C(C)C)c1=O`?
Beta cell apopt: -4; T cruzi repl: -21; AF4-AF9 inh: -3.6; E coli growth: 0.65; rRNA inh HTS: 11; FGF22 binding: inactive; UCH37 DUB inh: 3.9; Bfl-1 A1 inh: 0.5; rRNA inh HTS OD600: 8; rRNA inh HTS RFP: 0.8

How did O=C(CNC(=O)c1ccc(Cl)cc1Cl)NCCCn1ccnc1 do in these assays?
Beta cell apopt: -1; T cruzi repl: -27; E coli growth: 0.7; UCH37 DUB inh: -0.8; Bfl-1 A1 inh: 0.7

How did CSc1ncccc1C(=O)N1CCCC(Nc2ccc(C)c(C)c2)C1 (centres undefined) do in these assays?
Beta cell apopt: -1; T cruzi repl: 0; AF4-AF9 inh: 5.3; E coli growth: 0.65; rRNA inh HTS: 2; FGF22 binding: inactive; UCH37 DUB inh: 2.4; Bfl-1 A1 inh: -0.7; rRNA inh HTS OD600: -5; rRNA inh HTS RFP: -0.4

Results for COc1cc(NC2=CC(=O)CC(C)(C)C2)cc(OC)c1 ?
Beta cell apopt: -8; T cruzi repl: -13; AF4-AF9 inh: 5.6; E coli growth: 0.71; rRNA inh HTS: 4; UCH37 DUB inh: 5.9; Bfl-1 A1 inh: 1.7; rRNA inh HTS OD600: -11; rRNA inh HTS RFP: -2.8

What do the screens show for `CCN(CC)CCN1C(=O)c2oc3ccccc3c(=O)c2C1c1ccc(C)cc1` (centres undefined)?
Beta cell apopt: -6; T cruzi repl: -13; UCH37 DUB inh: -0.8; Bfl-1 A1 inh: -0.4

How did CCCCNC(=O)CSc1nc2ccc(Nc3nc(N4CCOCC4)nc(N4CCOCC4)n3)cc2s1 do in these assays?
Beta cell apopt: 5; T cruzi repl: 31; AF4-AF9 inh: 4.1; E coli growth: 0.66; rRNA inh HTS: 8; FGF22 binding: inactive; UCH37 DUB inh: 1.4; Bfl-1 A1 inh: -0.9; rRNA inh HTS OD600: 0; rRNA inh HTS RFP: 5.8

Results for CN(C)CCCOc1ccc(Cl)cc1Br ?
Beta cell apopt: -7; T cruzi repl: 68*; E coli growth: 0.66; UCH37 DUB inh: 5.5; Bfl-1 A1 inh: 0.5

Results for Cn1cccc1C(=O)NCCc1ccc(Cl)cc1 ?
Beta cell apopt: 0; T cruzi repl: -2; AF4-AF9 inh: 8.1; E coli growth: 0.72; rRNA inh HTS: -2; FGF22 binding: inactive; UCH37 DUB inh: 1.7; Bfl-1 A1 inh: -5.3; rRNA inh HTS OD600: 2; rRNA inh HTS RFP: 4.5

Results for COc1ccnc(CN(C)C(=O)C2CCC(=O)N(CCN(C)C)C2)c1 (centres undefined) ?
Beta cell apopt: -6; T cruzi repl: 0; AF4-AF9 inh: -1.3; E coli growth: 0.72; rRNA inh HTS: -2; FGF22 binding: inactive; UCH37 DUB inh: 6.3; Bfl-1 A1 inh: -0.5; rRNA inh HTS OD600: -1; rRNA inh HTS RFP: 2.7

How did CCC(CC)CN1C(Nc2ccccc2)=NC[C@@H]1C do in these assays?
Beta cell apopt: -4; T cruzi repl: 0; AF4-AF9 inh: -17; rRNA inh HTS: 8; FGF22 binding: inactive; UCH37 DUB inh: 5.1; Bfl-1 A1 inh: 0.7; rRNA inh HTS OD600: 2; rRNA inh HTS RFP: 14

Results for Cc1c(Cl)cccc1NC(=O)COC(=O)CCc1nc2ccccc2n1-c1ccccc1 ?
Beta cell apopt: 5; T cruzi repl: -9; E coli growth: 0.67; UCH37 DUB inh: 4.8; Bfl-1 A1 inh: 0.2

How did CC(=O)Nc1ccc(NC(=O)Cn2c(CC(=O)N3CCCC3)nc3ccccc32)cc1 do in these assays?
Beta cell apopt: -2; T cruzi repl: -8; AF4-AF9 inh: 11; E coli growth: 0.73; rRNA inh HTS: 10; FGF22 binding: inactive; UCH37 DUB inh: -0.8; Bfl-1 A1 inh: -0.8; rRNA inh HTS OD600: 6; rRNA inh HTS RFP: -4.9

How did CC(C)c1ccc(NC2(C#N)C(=O)Nc3ccccc32)cc1 (centres undefined) do in these assays?
Beta cell apopt: -7; T cruzi repl: -8; E coli growth: 0.67; UCH37 DUB inh: 3.7; Bfl-1 A1 inh: 0.1

What do the screens show for `CC(=O)Nc1nc2ccccc2n1Cc1ccc(Cl)cc1`?
Beta cell apopt: 30; T cruzi repl: inconclusive; AF4-AF9 inh: -3.1; E coli growth: 0.67; rRNA inh HTS: -60; FGF22 binding: inactive; UCH37 DUB inh: 3.9; Bfl-1 A1 inh: 0.1; rRNA inh HTS OD600: -78; rRNA inh HTS RFP: -28

The last 2 compounds of the section above open the next one.
How did CC(C)c1ccc(NC2(C#N)C(=O)Nc3ccccc32)cc1 (centres undefined) do in these assays?
Beta cell apopt: -7; T cruzi repl: -8; E coli growth: 0.67; UCH37 DUB inh: 3.7; Bfl-1 A1 inh: 0.1

What do the screens show for `CC(=O)Nc1nc2ccccc2n1Cc1ccc(Cl)cc1`?
Beta cell apopt: 30; T cruzi repl: inconclusive; AF4-AF9 inh: -3.1; E coli growth: 0.67; rRNA inh HTS: -60; FGF22 binding: inactive; UCH37 DUB inh: 3.9; Bfl-1 A1 inh: 0.1; rRNA inh HTS OD600: -78; rRNA inh HTS RFP: -28

How did CC(=O)C1C(c2ccco2)c2c(noc2C)CC1(C)O (centres undefined) do in these assays?
Beta cell apopt: -5; T cruzi repl: -3; E coli growth: 0.66; UCH37 DUB inh: -0.9; Bfl-1 A1 inh: 0.0

How did CCO/C(C)=C1\C(=O)N(CC)c2ccccc21 do in these assays?
Beta cell apopt: -9; T cruzi repl: 5; E coli growth: 0.76; UCH37 DUB inh: 1.5; Bfl-1 A1 inh: -0.6

Results for COc1ccc(-c2nnc3ccc(SCC(=O)N4CCCCCC4)nn23)cc1OC ?
Beta cell apopt: 8; T cruzi repl: 1; AF4-AF9 inh: 5.2; E coli growth: 0.73; rRNA inh HTS: 10; FGF22 binding: inactive; UCH37 DUB inh: 7.6; Bfl-1 A1 inh: 0.1; rRNA inh HTS OD600: 8; rRNA inh HTS RFP: -0.1

How did CC(NCC1(N2CCOCC2)CCCCC1)C(=O)N1CCc2ccccc21 (centres undefined) do in these assays?
Beta cell apopt: -7; T cruzi repl: -1; E coli growth: 0.7; UCH37 DUB inh: 5.0; Bfl-1 A1 inh: -0.1

How did COc1ccc(-c2[nH]c(-c3ccc(C)cc3)nc2SCC(=O)NCc2ccco2)cc1OC do in these assays?
Beta cell apopt: 2; T cruzi repl: -8; AF4-AF9 inh: -8.8; E coli growth: 0.74; rRNA inh HTS: -6; FGF22 binding: inactive; UCH37 DUB inh: 5.4; rRNA inh HTS OD600: -3; rRNA inh HTS RFP: -0.6

How did CC(C)c1ccc(NC(=O)NC2CC3CCC(C2)N3Cc2cccs2)cc1 (centres undefined) do in these assays?
Beta cell apopt: -3; T cruzi repl: 36; AF4-AF9 inh: 0.9; E coli growth: 0.69; rRNA inh HTS: 1; FGF22 binding: inactive; UCH37 DUB inh: 6.9; Bfl-1 A1 inh: -0.6; rRNA inh HTS OD600: -8; rRNA inh HTS RFP: 1.6

Results for Cc1ccc(-c2noc(C3CCCCC3)n2)cc1 ?
Beta cell apopt: -2; T cruzi repl: -16; E coli growth: 0.64; UCH37 DUB inh: 3.4; Bfl-1 A1 inh: 0.7

What do the screens show for `CC(Sc1nnc(-c2cccs2)n1N)C(=O)NCC1CCCO1` (centres undefined)?
Beta cell apopt: -5; T cruzi repl: 1; AF4-AF9 inh: -3.9; E coli growth: 0.68; rRNA inh HTS: 6; FGF22 binding: inactive; UCH37 DUB inh: 3.7; Bfl-1 A1 inh: 0.5; rRNA inh HTS OD600: 7; rRNA inh HTS RFP: -1.4

Results for COc1ccc(C2=NOC(COc3ccc([N+](=O)[O-])cc3)C2)cc1 (centres undefined) ?
Beta cell apopt: -6; T cruzi repl: 3; AF4-AF9 inh: -2.2; E coli growth: 0.65; rRNA inh HTS: 18; FGF22 binding: inactive; UCH37 DUB inh: 5.1; Bfl-1 A1 inh: -0.3; rRNA inh HTS OD600: 2; rRNA inh HTS RFP: 0.8
